Screening results from PubChem.
LANA-nucl inh: LANA-nucleosome interaction inhibition; FITC-LANA1-23 / chicken nucleosome fluorescence polarization; hits give low values; z-score (concentration not given with the values); hit rate 0.3% among 51,000;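 active means both repeat wells score below -2 in polarization z-score versus plate sample wells, excluding overly bright wells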;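 further: 100 nL library stock added to about 30 µL; numbers are from one replicate; some results filed as inactive read as strong as hits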
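Assay system: purified chicken nucleosomes with FITC-labelled LANA N-terminal peptide (1-23) / Probe or stimulus: 50 nM FITC-LANA1-23 probe / Compound dosing: pin-transferred compound, 100 nL / Times: compound with peptide–nucleosome mix 10–45 min at room temperature / Technique: fluorescence polarization, 480 nm excitation, 535 nm parallel and perpendicular emission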
Ab BasE inh: inhibitors of Acinetobacter baumannii siderophore enzyme BasE | purified BasE, fluorescence polarization binding displacement | inhibition, % (concentration not given with the values) | hit rate 0.1% among 84,000 | AID 485350;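 active means both replicates above 25% with normal brightness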;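 further: 0% = negative plate control signal and 100% = positive plate control signal; stock transfer was 100 nL into about 30 µL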
* marks the source's active call; other numbers are inactive results; . = not tested or not shown; & = joins results of further samples. This is a subset; the hit share may differ from the screen's.

SMILES | LANA-nucl inh | Ab BasE inh
O=C(Nc1ccccc1)Nc1cc(-c2ccccc2)[nH]n1 | 0.001 | 0.8
CCOc1ccc2nc(N(Cc3ccccc3)C(=O)c3ccco3)sc2c1 | 0.71 | -0.8
C#CCN1C(=O)C2C(C(=O)NC)C3C=CC2(O3)C1C(=O)NCc1ccc(OC)cc1 (stereo unspecified) | 2.2 | -3.5
Cc1ccc(/C=C/C(=O)CCC(=O)O)cc1 | 2.1 | .
O=C(Cc1cn2ccsc2n1)N/N=C/c1cn(-c2ccccc2)nc1-c1cccs1 | . | 0.5
CC1=CCC2COC(c3ccccn3)C1C2 (stereo unspecified) | -0.27 | 3.9
Cc1onc(-c2c(F)cccc2Cl)c1C(=O)N[C@@H]1C(=O)N2C(C(=O)O)C(C)(C)S[C@H]12 (stereo partly specified) | -0.46 | -0.5
COc1ccc(NC(=O)C2CC(=O)N(Cc3ccc(F)cc3)C2)cc1 (stereo unspecified) | -1.8 | .
Cn1c(SCc2nc3ccc(Cl)cc3n2CCO)nnc1C(F)(F)F | . | -3.0
Cc1c(NC(=O)c2ccc(Br)o2)cccc1-c1nc2cccnc2s1 | -1.5 | 0.6
O=C(Nc1ccccc1)C(=S)N1CCCC1 | 0.093 | -1.5
O=c1c(Cl)c(NC2CC2)cnn1-c1ccccc1 | -0.6 | 0.2
Cc1cc2oc(=O)cc(CN3CCN(C(=O)C4CCCO4)CC3)c2cc1Cl (stereo unspecified) | . | -1.9
N#Cc1c(-n2cccc2C#N)sc2c1CCCC2 | -0.073 | -2.5
N#Cc1ccc(CC(C#N)c2ccccc2)cc1 (stereo unspecified) | . | -1.3
CCOC(=O)c1c(C)n(-c2ccccc2)c2ccc(OC(=O)c3ccccc3NC(=O)CC)cc12 | . | 3.8
O=C(NCc1cn2cc(Cl)ccc2n1)c1ccccc1 | . | -0.1
O=C(Cc1ccc(Cl)c(Cl)c1)N1CCC2(CC1)Nc1ccccc1S(=O)(=O)N2 | 0.26 | 0.8
Oc1ccccc1-c1nc(N2CCCC2)c2ccccc2n1 | 0.4 | 1.8
COC(=O)c1cc(N)c(Cl)s1 | . | 2.5
CC(C)(C)C(=O)OC[C@H]1O[C@@H](n2cnc3c(N)ncnc32)C[C@@H]1OC(=O)C(C)(C)C | . | 0.2
COC(=O)/C(C#N)=C/c1cccc(O)c1 | . | 1.9
CCN(CC)S(=O)(=O)c1ccc(C(=O)OC(C)C(=O)NC2CCCCC2)cc1 (stereo unspecified) | . | -0.9
CCOC(=O)C1=C(CSc2nnc(Cc3ccc(OC)cc3)n2N)NC(=O)NC1C (stereo unspecified) | . | 1.3
CCC(=O)Nc1ccc2nn(-c3ccc(CC)cc3)nc2c1 | -0.92 | 1.5
O=C(CCC(=O)c1cccs1)OCc1nnc(-c2ccccc2)o1 | . | -4.2
Cc1cc(SCC(N)=O)nc(=O)[nH]1 | 0.22 | -1.0
COc1ccc(Nc2ccccc2NC(=O)c2cc3ccccc3o2)cc1 | . | 1.1
Cn1nc(C(=O)Nc2ccccc2C(=O)NC2CCCC2)ccc1=O | . | -1.6
Cc1ccc(N(C(C)C(=O)Nc2ccc(S(=O)(=O)N3CCOCC3)cc2)S(C)(=O)=O)cc1C (stereo unspecified) | 0.3 | 1.3
COCc1cc(=O)[nH]c(/N=C(\N)Nc2ccc(C)cc2)n1 | 0.1 | 1.4
O=C(Oc1ccccc1)c1ccc2nccnc2c1 | -0.23 | -0.6

Exported field by field: part of the list above
Cc1cc(SCC(N)=O)nc(=O)[nH]1
  LANA-nucl inh: 0.22	Ab BasE inh: -1.0
CCC(=O)Nc1ccc2nn(-c3ccc(CC)cc3)nc2c1
  LANA-nucl inh: -0.92	Ab BasE inh: 1.5

Further records follow:
SMILES | LANA-nucl inh | Ab BasE inh
CCn1cc(C(=O)N(C)Cc2cccc(Cl)c2)c(=O)c2ccc(C)nc21 | . | 1.0
Nc1nc2ccccc2n1C(=O)Cc1ccccc1 | 0.88 | 1.9
O=C1CCCCCCCCCCC1CN1CCOCC1 (stereo unspecified) | . | -0.8
C=CCN(CC=C)S(=O)(=O)c1ccc(C(=O)Nc2nnc(-c3ccc(OC)cc3OC)o2)cc1 | 0.42 | 1.1
COC(=O)C1=C(O)/C(=C\c2ccccc2)N=C1C | -0.21 | -0.5
Cc1cc(C)c2c(n1)sc1c(=O)n(C(C)C(=O)NC(N)=O)cnc12 (stereo unspecified) | . | 2.1
Cc1c(Br)sc2sc(Br)c(C)c12 | 1.8 | -2.5
CCOC(=O)NC(=S)Nc1ccc(N2CC(C)OC(C)C2)cc1 (stereo unspecified) | . | -0.1

Structures listed so far containing a cyano group, in the order listed:
SMILES | LANA-nucl inh | Ab BasE inh
N#Cc1c(-n2cccc2C#N)sc2c1CCCC2 | -0.073 | -2.5
N#Cc1ccc(CC(C#N)c2ccccc2)cc1 (stereo unspecified) | . | -1.3
COC(=O)/C(C#N)=C/c1cccc(O)c1 | . | 1.9

Additional records follow.
SMILES | LANA-nucl inh | Ab BasE inh
COC(=O)c1ccc(-c2nc3ccc(C)cc3o2)cc1 | -0.8 | 0.9
Cc1ccc(NNC(=O)c2cccs2)cc1C | -0.024 | 0.1
CN(CC(=O)NC(=O)Nc1ccc2c(c1)OCCO2)Cc1cccc(F)c1 | . | 0.5
Cc1ccc(S(=O)(=O)Nc2nc(C)c(NC(=O)NC3C=NN=C3)s2)cc1 | 0.069 | 0.6
O=C(O)CSc1c[nH]c2ccccc12 | -0.8 | 2.4
CSc1ncccc1C(=O)NCCc1ccccc1 | . | -0.5
COc1ccc2c(-c3ccccc3)cc(N3CCNC(=O)C3)nc2c1 | . | -10.0
CC1=NN(C)C(=O)C1Cc1c(Cl)cccc1Cl (stereo unspecified) | . | 1.4
Cn1c(=O)n(N)c(=O)c2c(-c3ccc(F)cc3F)c3c(nc21)-c1ccccc1C3=O | . | 2.3
CC(C)S(=O)(=O)c1cnc(N2CCOCC2)nc1N | . | -1.0
COCCn1c(-c2ccncc2)nn(CO)c1=S | . | 2.6
CC1CCN(C2=NS(=O)(=O)c3ccccc32)CC1 | 0.4 | -1.5
CCOC(=O)/C=C1\NC(=O)CS1 | . | -1.4
CCCCCCCC/C=C\C/C=C\C/C=C\CCCC(=O)O | -0.76 | -2.5
COCCN1CN(Cc2ccco2)CC2=C1CC(c1ccccc1)CC2=O (stereo unspecified) | 0.12 | 2.8
CC1CN(Cn2nc(-c3ccc4c(c3)OCO4)oc2=S)CC(C)O1 (stereo unspecified) | . | 2.1

Single values from the list:
For Ab BasE inh, `Cn1c(=O)n(N)c(=O)c2c(-c3ccc(F)cc3F)c3c(nc21)-c1ccccc1C3=O` shows 2.3
For Ab BasE inh, `CC(C)S(=O)(=O)c1cnc(N2CCOCC2)nc1N` shows -1.0
For Ab BasE inh, `COCCN1CN(Cc2ccco2)CC2=C1CC(c1ccccc1)CC2=O` (stereo unspecified) shows 2.8

Additional compounds:
SMILES | LANA-nucl inh | Ab BasE inh
COc1ccccc1CN1C(=O)NC(CCc2ccccc2)C1=O (stereo unspecified) | . | 0.2
Cc1onc(-c2ccccc2Cl)c1C(=O)Nc1nnc(SCC(=O)Nc2ccccc2F)s1 | -0.39 | 1.6
Cc1nc(-c2ccncc2)nc(NCCNc2cc(C(F)(F)F)ccn2)c1Cl | . | 3.8
Cc1onc(-c2ccccc2Cl)c1C(=O)NN | 1.6 | -5.1
Nc1[nH]c(=O)ncc1F | 0.37&-0.04&-0.13 | 2.2
NC(=O)c1cnccn1 | 0.38&0.33&0.71 | -0.4&-2.3
Cc1ccccc1N=C(N)N=C(N)N | . | 2.6
C=CCNC(=S)Nc1ccc(C)cc1OC(F)F | -0.97 | 0.1
COc1ccc(/C=N\N2CCN(Cc3ccc(C)cc3)CC2)cc1OC | 0.99 | 2.2
CNC(=S)N1CCn2cccc2C1c1ccc(F)cc1 (stereo unspecified) | -0.68 | 1.5
Cc1sc2nc(CN3CCOCC3)nc(N(C)Cc3ccccc3)c2c1C | . | 1.0
O=C1CCC(C2CCC3(CC2)OCCO3)CC1 | 0.39 | 2.3
COc1cccc(CSc2nnc(-c3ccc(F)cc3)o2)c1 | -0.52 | 0.5
O=C(O)c1cc2c([nH]1)CCCC2 | 0.59 | -0.2
CC1CCN(C(=O)CSc2nnc3n2CCCCC3)c2ccccc2S1 (stereo unspecified) | . | 1.8
O=c1oc2ccccc2cc1-c1nnc(-c2cccc(Cl)c2)o1 | 2 | 0.0
O=C(NCc1ccc(Cl)cc1)c1ccc(-n2cccn2)nc1 | -0.059 | .
CS(=O)(=O)c1ccccc1-c1nnc(NC(=O)COc2ccc(Cl)cc2)o1 | 0.45 | -0.9
CCc1ccc(NC(=O)Cn2c(C(=O)OC)cc3sccc32)cc1 | 0.99 | -1.0
CCCN(S(=O)(=O)c1ccc(S(=O)(=O)N2CCCC2)cc1)S(=O)(=O)c1cccc(Cl)c1 | . | 0.1
O=S(Nc1ccc2c(c1)OCCO2)C12CC3CC(CC(C3)C1)C2 (stereo unspecified) | -0.9 | 3.3
Cc1oc2nc[nH]c(=O)c2c1C(=O)OC(C)C(=O)NC1CCCCC1 (stereo unspecified) | . | -0.2
CNC(=O)C1=C(C)NC(=O)NC1c1ccc(Cl)cc1 (stereo unspecified) | -1 | -0.2
Cn1c(=O)cc(Nc2ccccc2)c2c(=O)n(-c3ccccc3)c(=O)n(-c3ccccc3)c21 | . | 2.8
O=C(CSc1nc2ccccc2o1)N1CCC(n2cccc2)CC1 | . | -1.6
CCN1CCN(C(=O)C2c3ccccc3C(=O)N(Cc3ccc(F)cc3)C2c2ccc(OC)cc2)CC1 (stereo unspecified) | 0.75 | -2.7
CCN1CCCC1CNC(=O)c1cc(NC(C)=O)c(N(C)C)cc1OC (stereo unspecified) | . | 0.3
Nc1ccc(Sc2ccccc2Cl)cc1 | 0.097 | .
Cc1occc1-c1nnc(SCC(=O)NCc2ccc3c(c2)OCO3)n1CC(C)C | -1.1 | 1.2
NC1=NN(c2c(Cl)cc(Cl)cc2Cl)C(=O)C1 | 1.3 | -3.6
CC1(C)CC(NCc2ccccc2)CC(C)(C)N1 | 0.63 | -1.5
COC(=O)C1=C(C)NC2=C(C(=O)CC(C)(C)C2)C1c1ccncc1 (stereo unspecified) | . | 0.2
COc1ccccc1/C=C(/C(=O)OCC(=O)Nc1oc(C)c2c(C)n[nH]c(=O)c12)c1ccccc1 | . | -0.3
N=C1C(c2nc(-c3ccc(Br)cc3)cs2)=C(O)CN1C1CCS(=O)(=O)C1 (stereo unspecified) | . | 1.5
N#Cc1c(-c2ccc3c(c2)OCO3)cc(-c2ccc(F)cc2)nc1N | 0.08 | -1.8
CC(C)Oc1nc(-c2ccccc2)nc(-c2ccccc2)c1C#N | -1.3 | .
O=C1NC(=O)c2cccc3cccc1c23 | 0.21 | 2.3
COc1cc(COC(=O)c2ccc3c(c2)NC(=O)C2CCCN32)ccc1OC(F)F (stereo unspecified) | . | 6.4
C/C(=N\O)c1nnn(-c2cc(C(F)(F)F)cc(C(F)(F)F)c2)c1C | . | 3.3
CN(C)S(=O)(=O)c1ccccc1 | 1.7 | 2.1
CC(NC=O)c1nc2ccccc2n1C/C=C/c1ccccc1 (stereo unspecified) | -0.16 | 4.4
CCC1(C(=O)OC)NC(c2ccc(OC)cc2)C2C(=O)N(C)C(=O)C21 (stereo unspecified) | 1.1 | -1.4
Cc1nnc(NCCCO)[nH]c1=O | -1.1 | 1.5
CCS(=O)(=O)N1Cc2ccccc2CC1C(=O)OCC(=O)Nc1ccc(C(F)(F)F)cc1 (stereo unspecified) | . | 2.2
COc1ccc2c(CSc3nnc(-c4cccs4)n3N)cc(=O)oc2c1 | . | -7.5
S=C(NC1CCCCC1)N(Cc1ccccc1)Cc1ccccc1 | . | 0.8
Cc1cccc(NCc2nnc(-c3ccccc3)o2)c1 | 0.14 | -1.1
Nc1ccc(S(=O)(=O)NC(=O)c2ccccc2)cc1 | 0.23&-0.23&0.7 | -0.8&-1.4
CO/N=C(\C(=O)NC1C(=O)N2C(C(=O)OCOC(=O)C(C)(C)C)=C(/C=C\c3scnc3C)CSC12)c1csc(N)n1 (stereo unspecified) | -0.45&0.56 | 0.5
CCc1ccc(-c2cc(C)no2)cc1S(=O)(=O)N1CCN(c2ccccn2)CC1 | . | -0.7
COc1cc(-c2nc3c(C(C)(C)C)cc(C(C)(C)C)c(O)c3o2)ccc1O | 1.7 | -4.6
CCOC(=O)N1CCN(c2cc(Nc3c(C)cc(C)cc3C)c3c4c(onc24)-c2ccccc2C3=O)CC1 | 0.85 | -17
O=S(=O)(Nc1ccc(Cl)cc1OC(F)(F)F)C(F)(F)F | -0.63 | 1.2
Cc1nc2cc(NC(=O)CCn3[nH]c(=O)ccc3=O)ccc2n1-c1ccccc1 | . | 0.4
Cc1ccccc1Cn1cc(C)c(=O)[nH]c1=O | 0.46 | .
Cc1[nH]cnc1CN1CCCCCCC1 | 0.25 | 1.7

More compounds.
SMILES | LANA-nucl inh | Ab BasE inh
Cc1nc2cc(C(=O)NCCN(C)C)ccc2n1-c1ccccc1 | 0.11 | -8.4
C[C@]12C=CC(=O)C=C1CC[C@@H]1[C@@H]2[C@@H](O)C[C@@]2(C)[C@H]1CC[C@]2(O)C(=O)CO | 0.22&0.38 | -2.1
CCCCNS(=O)(=O)c1ccc2[nH]c(=S)[nH]c2c1 | . | 1.7
COc1cccc(N=C2NNC(C)=C(C(=O)N(C)C)S2)c1 | . | -0.6
CSc1ccc(C2C3CCCc4ccccc4C3=NN2CCO)cc1 (stereo unspecified) | . | 0.8
C(/C=C/c1ccccc1)=N/N1CCN(c2ccccc2)CC1 | 0.042 | 2.4
CC1(C)CC(=O)c2cnc(NCc3ccccc3)nc2C1 | . | 2.6
COc1cc(/C=C/C(=O)OCc2cn3cc(Cl)ccc3n2)ccc1O | . | 3.4
